# Cruzain Triton: qHTS Assay for Promiscuous and Specific Inhibitors of Cruzain (with detergent) | 200,000 compounds, 0.43% hits | purified cruzain, Z-FR-AMC fluorescence, 0.01% Triton | Potency, µM, inactives show max response, negative = inhibition, most hits filed as inhibitors; active = well fitted curve in the direction sought with a large enough effect; inconclusive = small, poorly fitted or top-dose-only effect, or another doubt; inactive = no such curve, though single readings can be large; an effect the other way counts as inactive or inconclusive;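 note: plate controls were neutral wells for no effect and buffer without enzyme for full effect; nearly all actives have a fitted effect of over 40% in size; top concentration of the series not given in the record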
# Target sequence (P25779 123-467 limits assumed): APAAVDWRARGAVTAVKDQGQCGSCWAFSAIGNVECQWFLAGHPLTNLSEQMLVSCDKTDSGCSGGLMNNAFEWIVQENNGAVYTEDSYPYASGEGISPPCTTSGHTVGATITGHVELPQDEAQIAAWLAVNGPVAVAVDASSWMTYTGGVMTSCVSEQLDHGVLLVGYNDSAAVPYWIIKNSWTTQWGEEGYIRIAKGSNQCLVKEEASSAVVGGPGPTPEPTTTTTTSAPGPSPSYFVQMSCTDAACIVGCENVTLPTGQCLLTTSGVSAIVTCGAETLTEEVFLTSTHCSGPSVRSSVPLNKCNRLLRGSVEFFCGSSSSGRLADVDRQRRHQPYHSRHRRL
#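 Detergent-containing run (0.01% Triton X-100) in acetate buffer pH 5.5 with 5 mM DTT: enzyme at 1.5 nM final, 15 min compound preincubation at room temperature, then 2 uM Z-FR-AMC substrate. Activity taken as 60 s fluorescence increase at 360/450 nm.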
# 2A StopGo: High Throughput Screening for Foot and Mouth Disease Virus Antivirals | human cells with a luciferase reporter of 2A StopGo recoding; control for the full effect not named in the record | Potency, µM (series often up to 57.9 µM), without a hit: at the highest dose signal change, negative = less light | 410,000 compounds, 1.2% hits | AID 1159524, 2015; active = well fitted falling curve with a large enough effect; inconclusive = small, poorly fitted or top-dose-only effect; inactive = no such curve, though single readings can be large or run the other way; tested in HEK293T cells; note: % is set by controls: 0 for no effect and ±100 for the full control effect; nearly all actives have a fitted effect of over 45% in size; luciferase light after 4 h
# Marburg entry inh: qHTS for inhibitors of binding or entry into cells for Marburg Virus | Marburg virus pseudotyped entry inhibition, cell reporter; control for the full effect not named in the record; about a third of the inactives were read at about 46 µM | Potency, µM (doses to about 37.8 µM), for the others: top-dose activity change, negative = inhibition, hits mostly inhibitors | 300,000 compounds, 1.8% hits | AID 540276, 2011; active = well fitted inhibition curve with a large enough effect; inconclusive = small, poorly fitted or top-dose-only effect, or effect the other way; inactive = flat fitted curve, though single readings scatter; tested in HEK293 cells; about a fifth of its hits are not listed in these tables; note: % is set by controls: 0 for no effect and ±100 for the full control effect; luciferase read-out
# NS1 inh: qHTS Assay for Inhibitors of Influenza NS1 Protein Function; S. cerevisiae slowed by influenza A NS1, growth recovery by OD600; 270,000 compounds, 0.4% hits; Potency, µM (doses to about 46.1 µM), for inactives: at the highest dose activity, positive = more growth; note: actives are rising curves; nearly all actives have a fitted effect of over 50% in size
#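 S. cerevisiae expressing influenza A NS1, grown in glucose, washed, then diluted 1:100 into pH 6.0 -URA galactose medium with 23 nl compound. Growth recovery read as OD600; NS1-free strain serves as control.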
# RE007 growth inh: qHTS Assay for Inhibitors of the HIV-1 protein Vpr. 360,000 compounds, 0.21% hits. Potency, µM (highest dose often 92.2 µM), inactives show at the top dose activity change, negative = less growth. S. pombe RE007 Vpr strain, BacTiter-Glo ATP luminescence, 24 h; control for the full effect not named in the record; active = well fitted falling curve with a large enough effect; inconclusive = small, poorly fitted or top-dose-only effect; inactive = no such curve, though single readings can be large or run the other way;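 note: % is set by controls: 0 for no effect and ±100 for the full control effect; nearly all actives have a fitted effect of over 50% in size; the assay follows cell death caused by Vpr and the record does not say whether a fall means rescue or toxicity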
#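 Fission yeast strain RE007, carrying one chromosomally integrated HIV-1 vpr copy, was seeded at OD 0.01 in PMG+AL medium with 23 nL pinned compound. After 24 h at 30 °C and 99% humidity, viability was read by BacTiter-Glo luminescence.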
# Cruzain inh noDet: qHTS Assay for Promiscuous and Specific Inhibitors of Cruzain (without detergent). 200,000 compounds, 2.3% hits. Potency, µM, for inactives: max response, negative = inhibition, hits mostly inhibitors. purified cruzain, Z-FR-AMC fluorescence, no detergent; active = well fitted curve in the direction sought with a large enough effect; inconclusive = small, poorly fitted or top-dose-only effect, or another doubt; inactive = no such curve, though single readings can be large; an effect the other way counts as inactive or inconclusive;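 note: plate controls were enzyme without inhibitor for no effect and buffer without enzyme for full effect; nearly all actives have a fitted effect of over 40% in size; top concentration of the series not given in the record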
#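 Purified cruzain at 1.5 nM, pre-incubated 15 min with compound at room temperature in 100 mM sodium acetate pH 5.5, 5 mM DTT, 0.00005% Triton X-100. Reaction started with 2 uM Z-FR-AMC; AMC fluorescence increase over 60 s gives rate.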
# SARS PLP yeast: qHTS of Yeast-based Assay for SARS-CoV PLP | S. cerevisiae expressing SARS-CoV PLpro, growth rescue; control for the full effect not named in the record | Potency, µM (series often up to 32.9 µM), inactives show top-dose activity, positive = growth rescue | 330,000 compounds, 0.19% hits | AID 485353, 2010; note: 0% is about no effect; nearly all actives have a fitted effect of over 55% in size; growth read by luminescence after 48 h
# Lassa entry inh: qHTS for Inhibitors of binding or entry into cells for Lassa Virus | Lassa virus pseudotype entry inhibition, cell reporter; control for the full effect not named in the record | 300,000 compounds, 1.2% hits | Potency, µM (top dose mostly 37.9 µM), for inactives: at the highest dose activity change, negative = inhibition, usual class: inhibitors | AID 540256, 2011; active means well fitted inhibition curve with a large enough effect; inconclusive means small, poorly fitted or top-dose-only effect, or effect the other way; inactive means flat fitted curve, though single readings scatter; tested in HEK293 cells; note: % is set by controls: 0 for no effect and ±100 for the full control effect; nearly all actives have a fitted effect of over 50% in size; luciferase read-out
# * marks the source's active call; other numbers are inactive results; ? = inconclusive; . = not tested or not shown; [ ] = another dose, or the depositor's remark. Unless noted, calls come from the whole dose curve; as a rule, active means well fitted rising curve with a large enough effect; inconclusive means small, poorly fitted or top-dose-only effect; inactive means no such curve, though single readings can be large or run the other way. Potency is the fitted concentration of half-maximal effect.
SMILES,Cruzain Triton,2A StopGo,Marburg entry inh,NS1 inh,RE007 growth inh,Cruzain inh noDet,SARS PLP yeast,Lassa entry inh
COc1ccc(N2CCN(CCNS(=O)(=O)c3ccc(C)cc3)CC2)cc1,.,13%,?,-19%,1%,.,-1%,-16%[46.1 µM]
COc1ccc(CNC(=O)CNC(=O)CNS(=O)(=O)c2ccc(C)c(C)c2)cc1,.,-12%,11%[46.1 µM],1%,19%,.,1%,-18%
O=C(COc1ccccc1Cl)Nc1cnn(Cc2ccccc2)c1,-2.1%,2%,22%,-10%,6%,3%,-13%,-7%
COc1ccc(C2Nc3ccccc3C(=O)N2c2ccccc2)cc1COc1ccccn1 (stereo not drawn),-15%,.,12%,-1%,10%,-1%,8%,10%
CCOc1cccc2cc(-c3nc4sc5c(c4c(=O)[nH]3)CCC(C(C)(C)C)C5)c(=O)oc12 (stereo not drawn),0.5%,-19%,.,.,.,6%,.,?
COc1ccc(Oc2ccc(C(F)(F)F)cc2N)cc1,.,21%,.,-5%,-1%,.,0%,.
FC(F)(F)c1nnc2ccc(N3CCCCCC3)nn12,-1.3%,-15%,44%,-12%,7%,10%,-2%,-9%
CCOC(=O)C1CCCN(c2c(N3CCN(c4ccccn4)CC3)c(=O)c2=O)C1 (stereo not drawn),-2.2%,-21%,.,9%,7%,1%,2%,.
Cc1ccc(Cn2ccsc2=NC(=O)COC(=O)c2ccc(O)cc2O)cc1,.,1%,.,0%,-9%,.,0%,.
COc1ccc(NC(=S)NC(=O)c2cc3ccccc3o2)c(OC)c1,.,12%,22%,4%,-4%,.,-8%,-16%
CC(C)c1ccc(C(=O)CC2(O)C(=O)N(CCc3ccccc3)c3ccc(Cl)cc32)cc1 (stereo not drawn),-5.7%,2%,?,.,.,-11%,.,?
O=C(Cc1ccc(Cl)cc1)NCCCNC(=O)c1cccnc1,.,-9%,3%[46.1 µM],1%,-16%,.,4%,15%[46.1 µM]
CC(=O)Nc1ccc(-n2cc3c(c2-c2ccc(C)cc2)c(=O)n(C)c(=O)n3C)cc1,-5.7%,0%,?,.,.,-6%,.,?
COc1ccc(CCN(C(=O)C(F)(F)F)C(C(=O)NC2CCCCC2)c2cccs2)cc1 (stereo not drawn),-3.4%,2%,-1%,-1%,-21%,-9%,-10%,.
Oc1ccccc1CN1CCCN(Cc2ccccc2O)C1,8.8%,3%,1.5µM*,0%,-4%,11%,.,7.3µM*
COc1ccc(CN(C)C(=O)C2CCN(C(=O)Nc3ccccc3)CC2)cc1,.,-19%,?,.,-4%,.,-2%,-13%
COc1cc(C(Nc2ccccn2)c2c(NC(=O)c3ccco3)sc(C)c2C)cc(OC)c1OC (stereo not drawn),-2.4%,-8%,-23%,-15%,-7%,?,-3%,-34%
CC(NC(=O)Nc1ccccc1)C(c1cccs1)N1CCOCC1 (stereo not drawn),-1.2%,-9%,.,-1%,0%,-6%,4%,.
O=C(O)c1ccc(/C=N/Nc2ncc(C(F)(F)F)cc2Cl)cc1,.,22%,0%[46.1 µM],-4%,-4%,.,0%,24%[46.1 µM]
CCC(=O)N1CCc2cc(S(=O)(=O)NC(C(=O)NCc3ccc(OC)cc3)C(C)C)ccc21 (stereo not drawn),-1.7%,?,-12%[46.1 µM],.,.,4%,.,-8%[46.1 µM]
CCOc1ccccc1N1CCN(C(=O)c2cccc(-c3ccc(O)cc3)c2)CC1,-2.5%,-58%,?,?,-2%,-19%,-25%,?
Cc1cccc(C)c1OCCNC(=O)c1ccc2ccccc2n1,.,-19%,.,-12%,9%,.,-3%,.
Cc1ccc(S(=O)(=O)N(C)c2ccc(C(=O)N3CCCCC3)cc2)cc1,-0.7%,-30%,-1%,-75%,8%[3.69 µM],12%,7%,-16%
COc1ccc2[nH]cc(CCNC(=O)COc3cc(C)cc4oc(=O)cc(C)c34)c2c1,.,-27%,.,-3%,-8%,.,0%,.
NC(=O)CSc1nccn1Cc1ccccc1,.,-10%,0%,.,-8%,.,0%,19%
# (more compounds)
SMILES,Cruzain Triton,2A StopGo,Marburg entry inh,NS1 inh,RE007 growth inh,Cruzain inh noDet,SARS PLP yeast,Lassa entry inh
Cc1ccc(C)c2c1cc(C)c1nnc(SCC(=O)N3CCCc4ccccc43)n12,-7.7%,-24%,?,3%,.,-2%,-2%,3%
CCc1cccc(CC)c1NC(=O)C[n+]1cccc(C(N)=O)c1,.,-9%,-1%[46.1 µM],.,-8%,.,0%,-11%
Cc1ccc(C2(C(F)(F)F)NC(=O)N3N=C4CCCCCN4C3=C2C#N)cc1 (stereo not drawn),.,-1%,-5%[46.1 µM],.,-6%,.,2%,2%
CC(C)Cn1c(N)c(C(=O)CSc2nnc(C3CC3)n2C2CC2)c(=O)n(C)c1=O,.,-17%,0%,.,4%,.,-1%,1%
CN1CCN(C(=O)OCCOCCOC(=O)N2CCN(C)CC2)CC1,.,-1%,-16%,.,-15%,.,.,2%
C=CCNC(=S)N1CCN(c2cc3c(cc2F)c(=O)c(C(=O)O)cn3CC)CC1,.,-11%,17%[46.1 µM],7%,10%,.,0%,15%
O=C(NCc1cccs1)c1ccc(Cl)c(S(=O)(=O)N2CCCC2)c1,.,12%,?,.,3%,.,1%,?
CC(=O)Nc1ccccc1-c1nnn(CC(=O)Nc2ccc3c(c2)OCCO3)n1,.,-17%,-5%[46.1 µM],-68%,10%,.,-3%,1%
O=C1CN(C(=O)CNCc2cccc(Cl)c2)c2ccccc2N1,.,-5%,.,3%,-15%,.,0%,.
CC(C)Oc1ccc(Cn2c(=O)oc3ccccc32)cc1,.,-15%,.,2%,10%,.,1%,.
COc1ccc(COC(=O)C2=C(C)NC(=O)NC2c2ccc(OC)cc2)cc1 (stereo not drawn),.,?,.,-2%,-14%,.,-5%,.
Cc1ccc(S(=O)(=O)N2CCOCC2)cc1C(=O)OC1CCCCC1=O (stereo not drawn),.,-6%,-5%[46.1 µM],.,-2%,.,-1%,-1%[46.1 µM]
O=C(CCc1ccccc1)NCc1nc2cccnc2n1Cc1ccc(F)cc1,-2.1%,3%,.,.,.,-1%,.,-1%[46.1 µM]
COc1ccc2[nH]c(CN3CCN(CCC(C)C)C(CCO)C3)c(C)c2c1 (stereo not drawn),.,-2%,.,0%,7%,.,0%,.
CN(C)C(=O)C1C2NC(=S)N(c3ccc(Cl)cc3)C1(C)Oc1ccc(Cl)cc12 (stereo not drawn),.,27%,-27%[46.1 µM],.,9%,.,?,-15%
Cn1c(=O)[nH]c(=O)c2c1nc(CN1CCOCC1)n2Cc1ccccc1,5.4%,16%,4%,4%,11%,6%,7%,-7%
Cc1cc(NC(=O)CSc2nccn2-c2cccc(Cl)c2)no1,.,-20%,13%,-21%,0%,.,-2%,-8%
CC(=O)Nc1ccc(C(=O)COC(=O)CCc2ccccc2)c(F)c1,.,-18%,6%,.,-12%,.,-11%,14%
COc1ccc(/C=N/NC(=O)c2ccc(C)nc2)cc1O,.,5%,-14%[46.1 µM],9%,16%,.,1%,29%[46.1 µM]
COc1ccc(OC)c(C2=NOC(C(=O)NCC3CCCO3)C2)c1 (stereo not drawn),3.8%,19%,-8%,3%,-9%,5%,3%,37%[14.3 µM]
COc1ccc(CC(=S)N2CCOCC2)cc1F,-1.6%,-14%,-4%,7%,13%,-4%,-5%,9%
CCn1c(Oc2ccccc2C)nc2c1c(=O)n(C)c(=O)n2C,.,-9%,.,-18%,4%,.,-6%,.
Cc1ccc(S(=O)(=O)NCC(=O)N2CCOCC2)cc1,-5.2%,-4%,.,5%,-4%,3%,11%,.
CC1CCCN(C(=O)CSc2nc3ccccc3o2)C1 (stereo not drawn),1.2%,46%[activator],20%,-18%,-7%,7%,-1%,0%
O=C(NCc1ccco1)c1ccc2c(=O)n(Cc3ccco3)c(SCC(=O)N3CCCC3)nc2c1,-9.1%,-3%,?,6%,2%,?,0%,10%
# Going on with the list.
SMILES,Cruzain Triton,2A StopGo,Marburg entry inh,NS1 inh,RE007 growth inh,Cruzain inh noDet,SARS PLP yeast,Lassa entry inh
CCCn1nnnc1NCc1ccccc1OCc1cccs1,4.2%,.,-11%,-5%,-5%,-11%,1%,-5%
Cc1ccc(CNC(=O)Cn2c(=O)cc(C)c3c(C)nn(-c4cccc(F)c4)c32)cc1,-0.3%,-12%,.,.,.,-9%,.,-18%[46.1 µM]
CC1(C)CC(=O)C(C=NCCN2CCNCC2)=C(O)C1,.,-23%,11%[46.1 µM],1%,-11%,.,8%,25%[46.1 µM]
CC1CN(C(=O)CSc2nc(-c3ccc(F)cc3)cs2)CC(C)O1 (stereo not drawn),-2.9%,?,16%,4%,19%,11%,6%,-19%
Nc1ccc(-c2nnc(-c3ccc(N)cc3)o2)cc1,.,7%,-4%[46.1 µM],-4%,3%,.,-1%,?
CCCc1cc(=O)oc2cc(OC(=O)CN3C(=O)NC4(CCCC4)C3=O)ccc12,.,1%,-9%,.,1%,.,.,-13%
COc1ccccc1N(CC(=O)NCCSCc1ccco1)S(=O)(=O)c1ccccc1,.,-24%,?,-1%,-10%,.,0%,-3%
Cc1ccc(NC(=O)COC(=O)CCc2nc3ccccc3c(=O)[nH]2)cc1Cl,.,-6%,2%[46.1 µM],0%,-3%,.,0%,-4%
COc1cc(CNCC(C)C)c(Br)cc1OCC(=O)NCc1ccccc1,2.9%,12%,2%,-3%,-13%,5%,?,17%
Cc1ccc(-c2cc[n+](Cc3ccccc3)cc2)cc1,.,?,?,-1%,5%,.,0%,-20%
COc1cc(CNc2ccc3[nH]c(=O)[nH]c3c2)ccc1OCc1ccc(F)cc1,.,-20%,.,18%,0%,.,?,.
O=C(CCCc1ccccc1)Nc1ccnn1C1CCN(Cc2ccccc2)CC1,.,29%,.,-2%,2%,.,2%,.
Cc1cc(C)n2nc(C(=O)NNC(=O)c3ccccc3)nc2n1,.,5%,11%[46.1 µM],.,-15%,.,2%,?

# Screens from PubChem.
